Screens deposited in PubChem BioAssay by Vanderbilt University.
GIRK2 activ: opens human GIRK2 potassium channels. P48051. HEK293-GIRK2 thallium flux, Thallos fluorescence. calls only for hits at 25 µM. hit rate 0.05% among 63,000;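 active = among the strongest 0.2% of first-round signals and kept after retests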;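 note: first round at about 10 µM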
Target sequence (P48051 whole entry, looked up): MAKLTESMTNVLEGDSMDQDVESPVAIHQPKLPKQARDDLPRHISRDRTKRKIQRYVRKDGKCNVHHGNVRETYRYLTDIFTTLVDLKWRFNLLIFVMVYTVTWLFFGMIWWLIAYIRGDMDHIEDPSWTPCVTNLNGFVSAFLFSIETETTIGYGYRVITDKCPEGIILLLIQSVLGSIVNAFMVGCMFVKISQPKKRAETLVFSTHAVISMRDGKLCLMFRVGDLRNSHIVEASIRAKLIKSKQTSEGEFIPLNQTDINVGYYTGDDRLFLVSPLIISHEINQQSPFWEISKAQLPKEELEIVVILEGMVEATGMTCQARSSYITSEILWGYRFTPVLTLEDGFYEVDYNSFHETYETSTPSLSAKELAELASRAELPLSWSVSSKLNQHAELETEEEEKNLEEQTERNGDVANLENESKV
Calls only; i = inactive. These rows are one share of the data, so the mix of outcomes need not match the whole.

SMILES | GIRK2 activ
O=C1C(=O)N(CCCn2ccnc2)C(c2ccco2)C1=C(O)c1ccc2c(c1)OCO2 (centres undefined) | i
Cc1nn(-c2ccccc2)c(C)c1N1CCN(C(=O)c2cc(-c3ccco3)on2)CC1 | i
CCn1cc(-c2nc(-c3ccc(F)cc3)no2)c(=O)c2cc(F)c(N3CCOCC3)cc21 | i
Cc1cn2c(nc3c2c(=O)n(CCCc2ccccc2)c(=O)n3C)[nH]1 | i
FC(F)(F)c1cccc(CN2CCC(Cn3cnc4ccccc43)CC2)c1 | i
CC(=O)N1CCc2c(sc(NC(=O)c3nc4ccccc4s3)c2-c2nc3ccccc3s2)C1 | i
O=C1CC(c2noc(-c3cc(C4CC4)[nH]n3)n2)CN1c1ccccc1 (centres undefined) | i
Cn1cc(C(=O)N2CCc3nc(NC(=O)c4cccs4)sc3C2)nn1 | i
O=C1COc2cc(Cl)ccc2N1Cc1nc(-c2ccc(F)c(Br)c2)no1 | i
CN(C)S(=O)(=O)NC1CCCC(OC(=O)Nc2ccccc2)C1 (centres undefined) | i
COc1ccccc1-c1nc(Cn2nnc(C(=O)Nc3ccc(F)c(Cl)c3)c2N)c(C)o1 | i
O=C(NCCN1CCN(c2ccc(Cl)cc2)CC1)C(=O)Nc1cc(F)ccc1F | i
CC(O)(CCc1ccccc1)CNC(=O)C(=O)NCc1ccc2c(c1)OCO2 (centres undefined) | i
O=C(NC1CCCC1)c1ccc2c(=O)nc3c(-c4cccc(F)c4)n[nH]n3c2c1 | i
CC(C)N=c1cc2n(-c3ccc(Cl)cc3)c3ccccc3nc-2cc1Nc1ccc(Cl)cc1 | i
Cc1nccn1CC1CCc2c(c3ccccc3n2C)C1=O (centres undefined) | i
O=C(NC1CC(=O)N(c2cccc(F)c2)C1)c1ccccc1C(F)(F)F (centres undefined) | i
O=C(Nc1cnc(N2CCN(c3ccccn3)CC2)nc1)c1c(F)cccc1Cl | i
O=C(Nc1sc2c(c1-c1nc3ccccc3s1)CCCC2)c1ccc(Cl)cc1 | i
CCOC(=O)c1[nH]c(C)c(C(O)=C2C(=O)C(=O)N(CCN3CCOCC3)C2c2ccco2)c1C (centres undefined) | i
CC(C)(C)NC(=O)N1CCOC(c2ccccc2)C1 (centres undefined) | i
O=C(NCC1(c2cccs2)CC1)c1ccc2nsnc2c1 | i
Cn1c(=O)[nH]c(=O)c2c1nc(N1CCOCC1)n2CCc1ccccc1 | i
COc1nn(C)cc1C(=O)N1CCC(C(=O)NCc2nc(C)no2)CC1 | i
O=C(NCCCc1ccccc1)N(CCc1cccs1)C1CC1 | i
CCc1ccccc1N1C(=O)N(c2ccc(F)cc2)C2CS(=O)(=O)CC21 (centres undefined) | i
Cc1cc(C(=O)Nc2nc(C(=O)NCc3ccc(OCc4ccccc4)cc3)co2)no1 | i
CCc1cccc(NC(=O)Cn2ccn3nc(-c4ccc(Cl)cc4)cc3c2=O)c1 | i
CSc1ccc(NC(=O)c2nnn(-c3ccc(Br)cc3)n2)cc1 | i
CN(C)CCN1C(=O)C(=O)C(=C(O)c2ccc3c(c2)OCCO3)C1c1cccs1 (centres undefined) | i
COc1ccc(S(=O)(=O)N(Cc2ccoc2)Cc2cccs2)cc1Cl | i
O=C(C1CC1)N1CCC(COCc2ccccc2)CC1 | i
CCOC(=O)c1ccc(NC(=O)Cn2cccc(-c3nc(-c4ccc(F)cc4)no3)c2=O)cc1 | i
COc1ccc(C(=O)Nc2ccc3c(c2)CCCN3S(=O)(=O)c2ccc(OC)cc2)cc1 | i
O=C(Cn1nc(-n2cccn2)ccc1=O)NCCn1nc(-c2cccs2)ccc1=O | i
CC(Oc1ccccc1)C(=O)NCCc1nc(C2CC2)cc(C(F)(F)F)n1 (centres undefined) | i
O=C(COc1ccc(Cl)cc1)NCc1cnn2ccccc12 | i
COc1cccc(OCC(=O)NCC(c2cccs2)N2CCOCC2)c1 (centres undefined) | i
NS(=O)(=O)c1ccc(CCn2c3c(c(=S)[nH]c2=O)CCC3)cc1 | i
O=C(c1ccc(Cl)s1)N1CCC(c2nnc(-c3ccoc3)o2)CC1 | i
O=C(NCc1ccc(F)cc1)c1nnn(-c2ccc(F)cc2)c1-c1ccncc1 | i
O=C(CCn1c(=O)oc2ccc(Cl)cc21)N1CCN(C(=O)c2ccco2)CC1 | i
COC(=O)c1ccc(NC(=O)Cn2cnc3c(-c4ccc(Cl)cc4)csc3c2=O)cc1 | i
O=C(NCC(O)(c1ccccc1)C1CC1)C(=O)Nc1cccnc1 (centres undefined) | i
Cc1cc(=O)n(CCNC(=O)Cc2ccc(Cl)cc2)cn1 | i
COC(=O)c1sccc1S(=O)(=O)Nc1ccc(C)c(Cl)c1 | i
O=C(Nc1ccc(S(=O)(=O)Nc2nccs2)cc1)c1cc2n(n1)CCCO2 | i
COc1ccc(CCNC(=O)CCc2nnc3ccc(-c4ccccc4)nn23)cc1OC | i
O=C(COc1ccc(Cl)cc1)Oc1ccc(/C=C/c2ccccn2)cc1 | i
O=C(COc1ccccc1F)NCC#CCN1CCCC1 | i
COC(=O)c1sccc1S(=O)(=O)Nc1ccc(NC(C)=O)cc1 | i
O=C(c1ccc2c(c1)OCO2)N1CCOC(c2cc(Cl)cc(Cl)c2)C1 (centres undefined) | i
Cn1cnc2cc(OS(=O)(=O)c3ccc4c(c3)OCCO4)ccc21 | i
CC1CCC2(C(=O)O)CCC3(C)C(=CCC4C5(C)CCC(O)C(C)(C(=O)O)C5CCC43C)C2C1(C)O (centres undefined) | i
c1ccc(N2CC[N+]3(CCCC3)CC2)nc1 | i
Cc1nc2cc(NC(=O)c3csc(Nc4ccc(S(C)(=O)=O)cc4)n3)ccc2s1 | i
CC(=O)c1ccc(C(=O)N(Cc2ccncc2)c2nc3c(C)c(Cl)ccc3s2)cc1 | i
O=C(NCC1CCN(C(=O)c2ccoc2)CC1)c1cc2ccccc2oc1=O | i
COc1cccc(C(O)=C2C(=O)C(=O)N(CCN(C)C)C2c2ccccc2F)c1 (centres undefined) | i
Cn1c(CN2CCN(CC(=O)Nc3nc4ccccc4s3)CC2)nc2ccccc21 | i
(more compounds)
SMILES | GIRK2 activ
COc1ccc(C(=O)NCCOc2ccc(F)cc2)nn1 | i
CCc1ccc(N2CC(C)Cn3c2nc2c3c(=O)n(CCOC)c(=O)n2C)cc1 (centres undefined) | i
CC1CCc2c(sc(NC(=O)CCCS(=O)(=O)Cc3ccccc3)c2C(N)=O)C1 (centres undefined) | i
Cc1cc(NC(=O)CSc2nnc(N3CCN(C(=O)c4ccc(F)cc4F)CC3)s2)no1 | i
COc1ccc(CCNC(=O)CCCCn2c(=O)[nH]c3ccccc3c2=O)cc1OC | i
O=C(c1ccc(Br)o1)N1CC(Oc2nc3c(F)cccc3s2)C1 | i
CCOC(=O)c1ccc(NS(=O)(=O)c2c(C(=O)OC)sc3ccccc23)cc1 | i
CCCc1nnsc1C(=O)NCc1ccc(C(=O)c2cccs2)s1 | i
COCCN(Cc1ccsc1)C(=O)c1ccc(C(C)(C)C)cc1 | i
O=C(c1cc(-c2cccs2)[nH]n1)N1CCN(c2cc(N3CCCCC3)ncn2)CC1 | i
NC(=O)c1ccccc1NS(=O)(=O)c1ccc(N2C(=O)CCC2=O)cc1 | i
COc1ccc(NC(=O)CSc2ncc(S(=O)(=O)c3ccc(C)cc3)c(=O)[nH]2)cc1Cl | i
CCc1cc2c(=O)c(-c3ccc4c(c3)OCCCO4)coc2cc1OS(C)(=O)=O | i
O=c1[nH]c(=S)c2c(n1Cc1ccco1)CCCC2 | i
CCOC(=O)Cn1c(=NC(=O)CCCS(=O)(=O)Cc2ccccc2)sc2cc(F)ccc21 | i

Part of the list above, reformatted:
| Structure | GIRK2 activ |
| --- | --- |
| CCCc1nnsc1C(=O)NCc1ccc(C(=O)c2cccs2)s1 | i |
| COCCN(Cc1ccsc1)C(=O)c1ccc(C(C)(C)C)cc1 | i |
| O=C(c1cc(-c2cccs2)[nH]n1)N1CCN(c2cc(N3CCCCC3)ncn2)CC1 | i |
| NC(=O)c1ccccc1NS(=O)(=O)c1ccc(N2C(=O)CCC2=O)cc1 | i |

Following part.
SMILES | GIRK2 activ
CC(C)S(=O)(=O)c1ccc(CC(=O)N(Cc2cccs2)Cc2cccn2C)cc1 | i
COc1ccc(CNC(=O)N2CCC3(CC2)OCCCO3)cc1 | i
O=C(Nc1nc2c(s1)CN(C(=O)c1nc3ccccc3s1)CC2)c1ccco1 | i
CCC(CC)C(=O)Nc1nonc1-c1ccc(Cl)cc1 | i
Cc1ccccc1NC(=O)Cn1nc2c3cc(-c4ccc(Cl)cc4)nn3ccn2c1=O | i
CCOC(=O)N1CCC(NC(=O)Cn2ccn(Cc3ccc(Cl)cc3)c(=O)c2=O)CC1 | i
COc1ccc(Cc2nnc(SCC(=O)Nc3cccc(C(C)=O)c3)n2N)cc1 | i
COc1ccc(NC(=O)CSC2=NNC3C4CC(c5ccc(F)cc5)NN4C=CN23)cc1 (centres undefined) | i
CCCCc1ccc(N2C(=NC(=O)CCC(=O)O)SC3CS(=O)(=O)CC32)cc1 (centres undefined) | i
Cc1ccc(C)c(S(=O)(=O)N2CCCCC2CCNC(=O)C(=O)NC2CC2)c1 (centres undefined) | i
COc1cccc2sc(N3CC(OC(=O)c4ccco4)C3)nc12 | i
Cc1ccccc1NC(=O)N1CCC(Cn2cnc3ccccc32)CC1 | i
Cc1cc(=O)n2c(-c3cccc(NC(=O)C(C)Oc4cccc(F)c4)c3)csc2n1 (centres undefined) | i
Cn1c(NC(=O)c2ccco2)c(-c2ccc3c(c2)OCO3)c(=O)c2ccccc21 | i
CC1(C)CC[C@]2(C(=O)O)CC[C@]3(C)C(=CCC4[C@@]5(C)CCC(O[C@@H]6OC[C@H](O)[C@H](O)[C@H]6O[C@@H]6O[C@H](CO)[C@@H](O)[C@H](O)[C@H]6O)[C@@](C)(CO)C5CC[C@]43C)[C@@H]2C1 (some centres undefined) | i

Of the compounds above, 3 have a CF3 group.
SMILES | GIRK2 activ
FC(F)(F)c1cccc(CN2CCC(Cn3cnc4ccccc43)CC2)c1 | i
O=C(NC1CC(=O)N(c2cccc(F)c2)C1)c1ccccc1C(F)(F)F (centres undefined) | i
CC(Oc1ccccc1)C(=O)NCCc1nc(C2CC2)cc(C(F)(F)F)n1 (centres undefined) | i

Remaining list, next part.
SMILES | GIRK2 activ
Cc1ccc(NC(=O)CN2CCC3(CC2)N=C(c2ccccc2)C(=O)N3)c(C)c1 | i
Cc1ccc(C(=O)Nc2cc(C3CC3)nn2-c2nc(C)c(C)c(=O)[nH]2)cc1C | i
Cc1nc(C)c(-c2ccc(=O)n(CCNC(=O)C3(c4cccs4)CCCC3)n2)s1 | i
Cc1cc(NCCCN(C)C)n2nc(C)c(-c3ccccc3)c2n1 | i
Cc1cccc(OCC(O)CN)c1 (centres undefined) | i
COCCNC(=O)c1nnn(-c2ccc(NC(=O)c3cccc(C(F)(F)F)c3)cc2)n1 | i
Cc1ccc(NC(=O)NCCNc2ccc(Nc3ccncc3)nn2)cc1 | i
Cc1ccc(C(=O)C2=C(O)C(=O)N(CCCn3ccnc3)C2c2ccc(OC(C)C)cc2)o1 (centres undefined) | i
NS(=O)(=O)c1cc2c(cc1Cl)NC=NS2(=O)=O | i
CC1=CC(=C2C(=O)NC(=O)NC2=O)C=C(C)N1c1cccnc1 | i
O=C(NCc1cccc(C(F)(F)F)c1)c1nnn(-c2ccc(Cl)cc2)c1-c1cccnc1 | i
Cc1ccc(S(=O)(=O)C2=C(O)C(=O)N(Cc3ccc(F)cc3)C2c2ccc(F)cc2)cc1 (centres undefined) | i
COc1ccccc1NC(=O)Nc1ccc(Nc2ccc(-n3nc(C)cc3C)nn2)cc1 | i
O=S(=O)(Nc1cnc(N2CCOCC2)nc1)c1ccc(OC(F)(F)F)cc1 | i
CC(C)CCNC(=O)c1ccc2c(=O)nc3c(-c4ccc(Cl)cc4)n[nH]n3c2c1 | i
O=C(c1ccc(Br)o1)N1CCC(Oc2ccc(Cl)cn2)CC1 | i
Cc1ccc(Cn2c(=O)c3c(nc(N4CCCCCC4)n3C)n(C)c2=O)cc1 | i
CSc1ccccc1NC(=O)C(=O)NC(C)Cc1cccs1 (centres undefined) | i
Cc1ccc(C(=O)N2CCOCC2CN(C)CCO)cc1 (centres undefined) | i
CN(C)CCCN1C(=O)C(=O)C(=C(O)c2ccncc2)C1c1ccc(Cl)c(Cl)c1 (centres undefined) | i
CCOC(=O)c1cc(C(=O)c2ccccc2)c(SC)n(C)c1=O | i
CCOc1ccccc1NC(=O)CN1CC(c2nc(-c3ncccn3)no2)C1 | i
COc1cccc(N2CC(C)Cn3c2nc2c3c(=O)n(CCc3ccccc3)c(=O)n2C)c1 (centres undefined) | i
O=C(Nc1ccc2c(c1)CCCN2C(=O)C1CC1)c1ccc2c(c1)OCO2 | i
Cc1cc(C(=O)Nc2nc3c(Cl)ccc(Cl)c3s2)on1 | i
COc1ccc(NC(=O)Cn2cnc3c(-c4cccc(C)c4)nsc3c2=O)cc1OC | i
C=CCn1c(SCC(=O)NC2CCCC2)nc2sc3c(c2c1=O)CCC3 | i
Cc1ccc(/C=C/c2nc(C#N)c(N3CCN(C(=O)c4ccccc4F)CC3)o2)cc1 | i
CCOc1ccc(N2CCCCn3c2nc2c3c(=O)n(Cc3ccccc3)c(=O)n2C)cc1 | i
Cn1ccnc1N1CCN(CC(=O)NCc2ccco2)CC1 | i
COc1cccc(-n2ccn(Cc3ccccc3C)c(=O)c2=O)c1 | i

Six entries already listed, ordered by molar mass, low to high.
SMILES | GIRK2 activ
Cc1ccc(C(=O)N2CCOCC2CN(C)CCO)cc1 (centres undefined) | i
Cn1ccnc1N1CCN(CC(=O)NCc2ccco2)CC1 | i
COc1cccc(-n2ccn(Cc3ccccc3C)c(=O)c2=O)c1 | i
CSc1ccccc1NC(=O)C(=O)NC(C)Cc1cccs1 (centres undefined) | i
Cc1ccc(/C=C/c2nc(C#N)c(N3CCN(C(=O)c4ccccc4F)CC3)o2)cc1 | i
COc1ccc(NC(=O)Cn2cnc3c(-c4cccc(C)c4)nsc3c2=O)cc1OC | i
